# TRPV1 potentiator: enhances activation of the human vanilloid receptor TRPV1; potentiation, % at 8.33 µM; AID 540277; Q8NER1; TRPV1-expressing cells, Fluo-8 calcium influx, capsaicin EC20 potentiation; host cell line not named in the record; control for the full effect not named in the record; hit rate 0.02% among 320,000; active means potentiation above 80%; inconclusive means 30% to 80%; inactive means below 30%; further: 0% is about no effect
# Target sequence (Q8NER1 whole entry, looked up): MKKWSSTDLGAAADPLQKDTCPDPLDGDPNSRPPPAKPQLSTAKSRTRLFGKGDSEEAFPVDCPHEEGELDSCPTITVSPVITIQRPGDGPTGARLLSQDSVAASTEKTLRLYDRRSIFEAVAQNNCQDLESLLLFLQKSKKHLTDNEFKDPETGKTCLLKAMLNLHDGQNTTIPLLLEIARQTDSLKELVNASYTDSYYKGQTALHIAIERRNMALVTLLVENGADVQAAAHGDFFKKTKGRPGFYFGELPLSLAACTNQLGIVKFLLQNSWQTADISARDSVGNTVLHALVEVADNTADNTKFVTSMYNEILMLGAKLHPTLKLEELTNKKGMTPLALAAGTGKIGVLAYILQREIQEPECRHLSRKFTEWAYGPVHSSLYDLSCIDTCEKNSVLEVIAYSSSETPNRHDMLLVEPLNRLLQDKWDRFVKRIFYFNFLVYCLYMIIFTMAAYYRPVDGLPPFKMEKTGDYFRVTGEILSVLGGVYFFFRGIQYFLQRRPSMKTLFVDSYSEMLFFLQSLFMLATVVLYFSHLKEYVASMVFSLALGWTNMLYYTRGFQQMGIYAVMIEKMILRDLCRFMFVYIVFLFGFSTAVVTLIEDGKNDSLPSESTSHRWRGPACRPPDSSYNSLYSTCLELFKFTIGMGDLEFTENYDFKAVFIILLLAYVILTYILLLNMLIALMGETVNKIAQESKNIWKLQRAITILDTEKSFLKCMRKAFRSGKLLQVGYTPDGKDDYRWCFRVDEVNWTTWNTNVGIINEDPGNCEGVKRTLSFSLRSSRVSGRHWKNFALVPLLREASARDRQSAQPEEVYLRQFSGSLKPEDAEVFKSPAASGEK
#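 Cells expressing TRPV1 were dye-loaded with Fluo-8 and read kinetically: 10 s baseline, 3 min after compound (agonist portion), then 2 min after EC20 capsaicin (allosteric enhancer portion). Calcium-bound dye fluorescence at 480/520 nm.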
# D2 ag: agonists of human D2 dopamine receptor (beta-arrestin) | hit rate 0.084% among 360,000 | AID 624465 | activation, % (no concentration beside the values) | P14416 | DiscoveRx PathHunter D2 beta-arrestin, luminescence, 90 min; 100% = 57 uM dopamine signal; in the data active = activation above about 40%; inconclusive = about 15% to 40%; inactive = below about 15%; further: compound concentration not given in the record; the text of the record calls up to 30% inactive
#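 DiscoveRx PathHunter D2 beta-arrestin cells (2,100/well) attached overnight, then compound-stimulated 90 min at 37 C in HBSS/10 mM HEPES/0.1% Tween-20 buffer; beta-galactosidase complementation read by luminescence after 1 h at ambient temperature. Dopamine 57 uM final (EC100) as control.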
# PINK1 modulator: changes PINK1 expression | PINK1 immunofluorescence, high-content cytometry, 24 h | Potency, µM (titrated, usually from 76.6 µM), for the others: top-dose activation (PINK1 increase), usual class: activators | hit rate 0.2% among 410,000 | AID 624263; active = well fitted activation curve with a large enough effect; inconclusive = small, poorly fitted or top-dose-only effect; inactive = flat fitted curve, though single readings scatter; cell line not stated here;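 further: potency means the concentration at half of the fitted maximal effect; % of control where 0% means no effect; nearly all actives have a fitted effect of over 65% in size; a mitochondrial uncoupler was the plate control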
#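 Decision-based qHTS: stable cells, 24 h exposure to five compound concentrations, CCCP as control. Fixed cells stained for PINK1 plus nuclear, mitochondrial and cell markers, cytometer read.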
# Sfp inh: Sfp phosphopantetheinyl transferase inhibition; Potency, µM, for inactives: max response, negative = inhibition, most hits filed as inhibitors; Biochemical Sfp PPTase activity, qHTS; Q9F4F7; hit rate 3.5% among 310,000; active means well fitted inhibition curve with a large enough effect; inconclusive means small, poorly fitted or top-dose-only effect, or another doubt; inactive means no such curve, though single readings can be large or run the other way;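 further: the enzyme is Sfp with the accession as filed and its product quenches rhodamine fluorescence; potency means the concentration at half of the fitted maximal effect; 0% = enzyme reaction without inhibitor and -100% = no enzyme wells; top concentration of the series not given in the record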
#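 Compounds were incubated with enzyme (final 15 nM) for 15 min at room temperature before substrate addition started the reaction. Fluorescence at 525 nm excitation, 598 nm emission was recorded immediately and after 30 minutes.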
# Six1-Eya2 inh: Six1/Eya2 interaction inhibition; AID 651725; hit rate 0.56% among 360,000; activity change, % (concentration not given with the values); AlphaScreen GST-Six1/His-Eya2 binding, biochemical; stronger effect = lower value; control for the full effect not named in the record; in the data active = activity change below about -65%; inconclusive = about -30% to -65%; inactive = above about -30%; further: on the % scale 0 is the no-effect control and ±100 the full control effect
#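 AlphaScreen with GST-Six1 and His-Eya2 (5X mix: 250 nM and 500 nM), glutathione donor and nickel acceptor beads; buffer 50 mM Tris pH 8.0, 300 mM NaCl, 1 mM TCEP; 1 h at 37 C in the dark.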
# D2 PAM: potentiates the human D2 dopamine receptor allosterically. P14416. DiscoveRx D2 beta-arrestin cells, luminescence, 90 min; 100% = 57 uM dopamine signal. potentiation, % (concentration not given with the values). hit rate 0.23% among 360,000. AID 624464; active = potentiation of 50% or more; inconclusive = 30% to 50%; inactive = 30% or less;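 further: compound concentration not given in the record; tested on top of an EC20 dose of dopamine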
#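 PathHunter beta-arrestin assay in DiscoveRx D2 cells. Compounds were added with an EC20 of dopamine (50 nM final) for 90 min at 37 deg C. Luminescence was read 1 h after detection reagent, with 57 uM dopamine as the EC100 control.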
# CtBP-E1A blk: blocks the CtBP interaction with E1A; AlphaScreen GST-E1A/His-CtBP binding, 1536-well; stronger effect = lower value; control for the full effect not named in the record; AID 651724; hit rate 0.49% among 340,000; activity change, % (concentration not given with the values); in the data active means activity change below about -65%; inconclusive means about -30% to -65%; inactive means above about -30%; further: on the % scale 0 is the no-effect control and ±100 the full control effect
#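 Homogeneous bead-based format: GST-tagged E1A captured on glutathione donor beads, His-tagged CtBP on nickel acceptor beads; compounds precede bead addition by 2 h at 37 °C.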
# An asterisk follows results filed as active; ? = inconclusive; · = not tested or not shown; & = joins results of further samples; [ ] = another dose, or the depositor's remark.
no. | molecule | Six1-Eya2 inh | TRPV1 potentiator | D2 PAM | Sfp inh | PINK1 modulator | CtBP-E1A blk | D2 ag
1 | COc1ccccc1NC(=O)c1ccccc1NC(=O)c1ccccn1 | -3 | -20 | 10 | · | 4.1% | -8 | -1.3
2 | c1ccc2c(CCN3CCNC[C@H]3Cc3cccc4ccccc34)cccc2c1 | -14 | · | -35 | · | -0.9% | -6 | 0.1
3 | CCCCC1CCC(C(=O)N(CCOC)c2c(N)n(CC(C)C)c(=O)[nH]c2=O)CC1 (stereo not drawn) | 6 | 0 | -2 | · | 0.3% | · | -1.4
4 | Cc1ccc(NC(=S)N(CCN(C)C)Cc2cc3cc(C)ccc3[nH]c2=O)cc1 | 5 | -2 | -6 | -14% | 4.4% | -4 | -4.2
5 | O=C1CC(c2ccccc2)CN1C(=O)c1cccc([N+](=O)[O-])c1 (stereo not drawn) | 6 | -27 | -18 | 6% | 0.0% | -2 | -3.2
6 | Cc1sc2ncn(CC(=O)Nc3ccccc3F)c(=O)c2c1-c1ccccc1 | 2 | 2 | -12 | 17% | 0.1% | 0 | -2.0
7 | O=C(c1cc(=O)c2cc(Cl)ccc2o1)N1CCN(Cc2ccccc2)CC1 | 0 | 1 | -11 | 8% | 0.6% | 4 | 2.5
8 | COc1ccc(C(CCN2CCN(c3ccccc3)CC2)c2c(OC)cc(OC)c3c(-c4ccccc4)cc(=O)oc23)cc1 (stereo not drawn) | ? | -1 | -11 | 22%&-5% | 2.0% | -26 | 8.5
9 | CCOc1cc(NC(=S)NCCCN2CCOCC2)c(OCC)cc1NC(=O)c1cccs1 | 12 | -5 | -3 | -6% | 5.9% | 3 | -1.8
10 | O=Cc1ccc(-c2c(-c3ccccc3)oc3c2C(OCCCCO)CCC3)o1 (stereo not drawn) | 0 | · | · | · | 0.5% | -23 | ·
11 | Nc1ccc2nc(COc3ccccc3)[nH]c2c1 | 1 | -4 | -3 | -1% | 1.7% | -1 | -4.6
12 | O=C(COC(=O)c1cc2ccccc2cc1O)NC(=O)NCc1ccco1 | -6 | 8 | -21 | ? | -1.4% | -3 | -3.9
13 | CCN(CC)C(=O)CSc1nnc(-c2cccnc2)n1Cc1ccccc1 | -3 | ? | 4 | 0% | -0.7% | 13 | -3.3
14 | Clc1ccc(CSc2ccc(-c3ccco3)nn2)cc1 | 0 | ? | -4 | 56µM* | 2.8% | 7 | -4.4
15 | Cc1c(C(=O)NCc2ccccc2)oc2c1C(=O)CCC2 | -2 | 2 | 21 | 22% | 0.4% | 2 | 1.1
16 | CCN1C(=O)N[C@@H](c2ccco2)C(C(C)=O)=C1C | 3 | · | -29 | 1% | -0.6% | 1 | -0.1
17 | O=C1CCC(CCC(=O)N2CCCC(C(=O)c3ccc4c5c(cccc35)CC4)C2)=NN1 (stereo not drawn) | -2 | -11 | 0 | 12% | 1.1% | -22 | -1.4
18 | O=C(COC(=O)c1ccccc1F)NC1CCCC1 | 0 | -7 | -1 | 5% | 1.1% | 5 | 2.1
19 | CCn1c(=O)cc(SCC(=O)Nc2ccc(Cl)cc2)c2ccccc21 | -1 | 0 | -6 | ? | 11% | 2 | 2.0
20 | C#CCOCCOCCOCCNc1nc(N2CCN(C(=O)[C@H](CCCN=C(N)N)n3cc(C(N)[C@@H](C)CC)nn3)CC2)nc(N2CCN(C(=O)[C@H](CC(N)=O)n3cc([C@@H](N)CC(N)=O)nn3)CC2)n1 (stereo partly drawn) | -8 | · | -12 | · | -0.7% | -14 | -5.7

# Structures shown so far with a Cl atom:
no. | molecule | Six1-Eya2 inh | TRPV1 potentiator | D2 PAM | Sfp inh | PINK1 modulator | CtBP-E1A blk | D2 ag
7 | O=C(c1cc(=O)c2cc(Cl)ccc2o1)N1CCN(Cc2ccccc2)CC1 | 0 | 1 | -11 | 8% | 0.6% | 4 | 2.5
14 | Clc1ccc(CSc2ccc(-c3ccco3)nn2)cc1 | 0 | ? | -4 | 56µM* | 2.8% | 7 | -4.4
19 | CCn1c(=O)cc(SCC(=O)Nc2ccc(Cl)cc2)c2ccccc21 | -1 | 0 | -6 | ? | 11% | 2 | 2.0

# (further entries)
no. | molecule | Six1-Eya2 inh | TRPV1 potentiator | D2 PAM | Sfp inh | PINK1 modulator | CtBP-E1A blk | D2 ag
21 | O=C(Nc1cc(S(=O)(=O)N2CCOCC2)ccc1N1CCCCC1)c1ccc(Cl)cc1 | -8 | -32 | -6 | · | 0.9% | -7 | -2.4
22 | CCn1c(COc2ccc3c(c2)OCO3)nnc1SCC(=O)c1ccc(Cl)cc1 | -13 | 5 | -19 | 3% | 2.6% | -11 | 0.7
23 | CN(C)CC(C)(C)CNC(=S)NCc1ccc2c(c1)OCO2 | 9 | 15 | -19 | ? | -1.1% | 3 | -1.4
24 | O=C(NCc1cccs1)Nc1cccc(Cl)c1 | 6 | · | -16 | · | -0.9% | 11 | -1.4
25 | CC1(C)OC(=O)C(=CNC(Cc2c[nH]c3ccccc23)C(=O)O)C(=O)O1 (stereo not drawn) | 3 | 0 | -4 | 9% | 1.5%[38.3 µM] | 10 | 0.9
26 | COc1cc(C2C3=C(CC(C)(C)CC3=O)Nc3ccccc3N2C(C)=O)cc(OC)c1OC (stereo not drawn) | 7 | 5 | -3 | 1% | -0.2% | -7 | -0.7
27 | O=C(c1cccc(S(=O)(=O)N2CCOCC2)c1)N1CCN(S(=O)(=O)c2cccs2)CC1 | 7 | 8 | -6 | 4% | 0.9% | 10 | -3.2
28 | COCCN=C1Sc2nc3cc(C)c(C)cc3cc2CN1Cc1cccs1 | 2 | ? | -7 | ? | 0.6% | 6 | -2.0
29 | Cc1ccc(S(=O)(=O)NC(=O)Nc2ccc(N(C)C)cc2)cc1 | ? | -27 | -2 | ? | -0.6% | ? | 12
30 | COc1ccc(C(=O)Nn2c(SCc3cccc([N+](=O)[O-])c3)nc3ccccc3c2=O)cc1 | ? | 21 | -14 | 19% | 0.7% | -26 | 0.1
31 | COc1ccc(Cl)cc1N(CC(=O)N1CCC(C)CC1)S(C)(=O)=O | 4 | 2 | -7 | 13% | 0.1% | -10 | -2.6
32 | CCN(CC)CCn1c(NCc2ccco2)nc2ccccc21 | -3 | -3 | -15 | -6% | -2.1%[38.3 µM] | -3 | -0.8
33 | CCOC(=O)CN(c1ccccc1)S(=O)(=O)c1ccc(F)cc1 | 1 | -6 | -7 | 4% | -1.9% | 9 | -2.2
34 | O=C1NC[C@H](c2ccccc2)N(CCC23CC4CC(CC(C4)C2)C3)C1=O | -11 | 21 | -46 | · | 1.7% | -5 | -1.6
35 | S=C(NCc1cccnc1)Nc1ccc(Oc2ccccc2)cc1 | -1 | -15 | 1 | 40µM* | 0.1% | 5 | 0.0
36 | Cc1ccc(Nc2nnns2)cc1C | -1 | 1 | -21 | 22µM* | -1.2% | -5 | -1.1
37 | Cc1onc(-c2c(Cl)cccc2Cl)c1C(=O)NC1CCCCC1 | -13 | -9 | 0 | 15% | 3.2% | -23 | -2.3
38 | COc1cc(NS(=O)(=O)c2ccc(NC(=O)NC3CCCCC3)cc2)nc(OC)n1 | 2 | 4 | 4 | 14% | -2.4%[38.3 µM] | 4 | 0.5
39 | COc1ccc(CNS(=O)(=O)NCc2ccccc2)cc1OC | -3 | -2 | -5 | 10% | -2.3% | 4 | -2.2
40 | O=C(O)C1CCCN1C1=NS(=O)(=O)c2ccccc21 (stereo not drawn) | 7 | -5 | 2 | 13% | 7.8% | 7 | -5.7

# A draw from above in order of number of heavy atoms, ascending:
no. | molecule | Six1-Eya2 inh | TRPV1 potentiator | D2 PAM | Sfp inh | PINK1 modulator | CtBP-E1A blk | D2 ag
40 | O=C(O)C1CCCN1C1=NS(=O)(=O)c2ccccc21 (stereo not drawn) | 7 | -5 | 2 | 13% | 7.8% | 7 | -5.7
23 | CN(C)CC(C)(C)CNC(=S)NCc1ccc2c(c1)OCO2 | 9 | 15 | -19 | ? | -1.1% | 3 | -1.4
37 | Cc1onc(-c2c(Cl)cccc2Cl)c1C(=O)NC1CCCCC1 | -13 | -9 | 0 | 15% | 3.2% | -23 | -2.3
35 | S=C(NCc1cccnc1)Nc1ccc(Oc2ccccc2)cc1 | -1 | -15 | 1 | 40µM* | 0.1% | 5 | 0.0
30 | COc1ccc(C(=O)Nn2c(SCc3cccc([N+](=O)[O-])c3)nc3ccccc3c2=O)cc1 | ? | 21 | -14 | 19% | 0.7% | -26 | 0.1

# Additional records follow:
no. | molecule | Six1-Eya2 inh | TRPV1 potentiator | D2 PAM | Sfp inh | PINK1 modulator | CtBP-E1A blk | D2 ag
41 | CCOC(=O)CNNC(=O)Nc1ccc(Cl)c(Cl)c1 | 0 | -1 | -2 | 1% | 1.6% | -6 | 0.7
42 | CCOc1ccc(/C(O)=C2/C(=O)C(=O)N(CCCN3CCOCC3)C2c2ccc(C)cc2)cc1C (stereo not drawn) | 4 | ? | -1 | 9% | -0.9% | 6 | 0.8
43 | Cc1ccccc1-c1nc(CN2CCC(C(=O)NCc3cccnc3)CC2)c(C)o1 | 0 | 7 | -15 | 14% | 6.9%[38.3 µM] | -1 | -3.2
44 | CC1(C(=O)NCc2cccs2)Cc2c(-c3ccc4c(c3)OCO4)ccnc2O1 (stereo not drawn) | -5 | · | 0 | · | 0.9% | -2 | 12
45 | COc1ccc(S(=O)(=O)N2CCN(C(=O)c3cnc(C)cn3)CC2)cc1 | 3 | 4 | 8 | 10% | -1.8% | 2 | -2.2
46 | CCCC(C(=O)Nc1ccc(S(=O)(=O)N2CCOCC2)cc1)c1ccccc1 (stereo not drawn) | -10 | 2 | -8 | · | 7.9% | -22 | -5.7
47 | CCN(CC)S(=O)(=O)c1cccc(C(=O)N[C@H](C(=O)OCC(=O)NC(=O)NC)C(C)C)c1 | 3 | -3 | -11 | -2% | 1.2% | 5 | -4.1
48 | Cc1ccc(Sc2ncnc3onc(C)c23)cc1 | 0 | -2 | 15 | 1% | -1.4% | 7 | -0.2

# No new results follow: an excerpt of the list.
no. | molecule | Six1-Eya2 inh | TRPV1 potentiator | D2 PAM | Sfp inh | PINK1 modulator | CtBP-E1A blk | D2 ag
46 | CCCC(C(=O)Nc1ccc(S(=O)(=O)N2CCOCC2)cc1)c1ccccc1 (stereo not drawn) | -10 | 2 | -8 | · | 7.9% | -22 | -5.7
47 | CCN(CC)S(=O)(=O)c1cccc(C(=O)N[C@H](C(=O)OCC(=O)NC(=O)NC)C(C)C)c1 | 3 | -3 | -11 | -2% | 1.2% | 5 | -4.1
48 | Cc1ccc(Sc2ncnc3onc(C)c23)cc1 | 0 | -2 | 15 | 1% | -1.4% | 7 | -0.2
